Compound activity (PubChem)
D2 ag: activates the human D2 dopamine receptor. AID 624465. P14416. DiscoveRx PathHunter D2 beta-arrestin, luminescence, 90 min; 100% = 57 uM dopamine signal. activation, % (no concentration beside the values). 360,000 tested, 0.084% active; in the data active = activation above about 40%; inconclusive = about 15% to 40%; inactive = below about 15%; note: compound concentration not given in the record; the text of the record calls up to 30% inactive
Target sequence (P14416 whole entry, looked up): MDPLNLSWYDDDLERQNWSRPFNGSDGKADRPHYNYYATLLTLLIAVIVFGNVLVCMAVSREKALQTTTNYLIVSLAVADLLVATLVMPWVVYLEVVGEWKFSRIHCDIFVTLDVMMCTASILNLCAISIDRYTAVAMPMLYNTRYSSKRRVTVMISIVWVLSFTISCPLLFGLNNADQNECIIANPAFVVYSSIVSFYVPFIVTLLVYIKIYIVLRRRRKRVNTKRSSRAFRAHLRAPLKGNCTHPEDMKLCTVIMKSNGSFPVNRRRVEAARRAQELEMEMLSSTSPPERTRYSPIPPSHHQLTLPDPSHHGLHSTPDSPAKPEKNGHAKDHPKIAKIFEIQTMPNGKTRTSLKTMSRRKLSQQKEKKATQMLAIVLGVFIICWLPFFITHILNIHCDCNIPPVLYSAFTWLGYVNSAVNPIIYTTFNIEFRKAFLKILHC
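Agonist mode: compounds alone added to overnight-plated D2 PathHunter cells for 90 min at 37 C, with 57 uM final dopamine (EC100) defining full response. Beta-arrestin recruitment detected by chemiluminescent reagent, read after 1 h at ambient temperature.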
gsp agonist: activates gsp, the McCune-Albright syndrome mutation; gsp mutant cells, cAMP HTRF, 30 min; control for the full effect not named in the record; Potency, µM (top dose mostly 76.9 µM), inactives show top-dose activation (cAMP increase), most hits filed as activators; 340,000 tested, 0.13% active; active = well fitted activation curve with a large enough effect; inconclusive = small, poorly fitted or top-dose-only effect, or another doubt; inactive = no such curve, though single readings can be large or run the other way; cell line not stated here;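 note: phosphodiesterase inhibitor Ro 20-1724 added with compounds to block cAMP breakdown; potency is the fitted concentration of half-maximal effect; nearly all actives have a fitted effect of over 60% in size; about a fifth of the inactives were tested at one dose only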
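Cells in DMEM/10% FBS with G418 were pretreated with compounds in DMSO plus […] (300 uM stock) for 30 min at 37C. cAMP was measured by HTRF (cAMP-d2 plus anti-cAMP antibody-K) after 30 min at room temperature.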
gsp antagonist: antagonists of gsp mutant (McCune-Albright syndrome); gsp-mutant cells, cAMP HTRF, 30 min; control for the full effect not named in the record; Potency, µM (highest dose often 76.9 µM), without a hit: at the highest dose activity change, negative = inhibition, usual class: inhibitors; 340,000 tested, 0.4% active; active = falling curve of any shape with a large fitted effect; inconclusive = falling curve, mostly with a smaller effect; inactive = flat or rising curve; cell line not stated here;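 note: intracellular cAMP measured with PDE inhibitor Ro 20-1724 present during compound exposure; potency is the fitted concentration of half-maximal effect; % is set by controls: 0 for no effect and ±100 for the full control effect; nearly all actives have a fitted effect of over 65% in size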
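Measurement of cellular cAMP by homogeneous time-resolved fluorescence following a 30 min compound exposure at 37C. The PDE inhibitor […] was present throughout; the assay buffer was DPBS with 0.05% BSA and 0.005% Tween 20.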
ClpP mod: qHTS Assay for Activators of ClpP | ATP-dependent Clp protease proteolytic subunit (Bacillus subtilis (strain 168)), P80244 | AID 651965, 2013 | Potency, µM (doses to about 57.5 µM), for inactives: top-dose activity change, negative = active | 340,000 tested, 1.9% active | purified B. subtilis ClpP, FRET peptide cleavage, 20 min; active = well fitted falling curve with a large enough effect; inconclusive = small, poorly fitted or top-dose-only effect; inactive = no such curve, though single readings can be large or run the other way; note: potency is the fitted concentration of half-maximal effect; the source files actives as falling curves though it sought activators and does not explain the sign; nearly all actives have a fitted effect of over 65% in size; many hits overshoot -100%
Target sequence (P80244 whole entry, looked up): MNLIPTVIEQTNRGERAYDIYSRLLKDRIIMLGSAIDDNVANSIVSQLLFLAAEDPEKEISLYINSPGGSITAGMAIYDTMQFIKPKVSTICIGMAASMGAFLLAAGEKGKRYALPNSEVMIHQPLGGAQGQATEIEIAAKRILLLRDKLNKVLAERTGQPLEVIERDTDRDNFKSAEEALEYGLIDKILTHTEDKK
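FRET quenching reversal measured ClpP activation: 10 microg/mL B. subtilis ClpP at pH 8 with the FRET-FV decapeptide, read at 430 nm after 320 nm excitation. The 20-min minus 0-min signal was scaled between DMSO/no-enzyme wells and ADEP (5.8 microM final).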
PINK1 modulator: PINK1 expression modulation. PINK1 immunofluorescence, high-content cytometry, 24 h. Potency, µM (top dose mostly 76.6 µM), without a hit: at the top dose activation (PINK1 increase), usual class: activators. 410,000 tested, 0.2% active. AID 624263; active = well fitted activation curve with a large enough effect; inconclusive = small, poorly fitted or top-dose-only effect; inactive = flat fitted curve, though single readings scatter; cell line not stated here;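 note: potency is the fitted concentration of half-maximal effect; % of control where 0% means no effect; nearly all actives have a fitted effect of over 65% in size; a mitochondrial uncoupler was the plate control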
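Readout is PINK1 immunofluorescence, quantified alongside mitochondrial, cell and nuclear markers by laser-scanning microplate cytometry. Cells from a stable line were exposed to compound titrations (5 concentrations) for 24 hours, with CCCP controls.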
Menin MLL FP FL: inhibitors of human menin-MLL interaction, wild-type MLL peptide | Fluorescence polarization, fluorescein-MLL peptide displacement from menin | FP activity change, % at 61.4 µM | 290,000 tested, under 10 active | AID 1766; inconclusive = falling polarisation curve, or a change in total fluorescence; inactive = total fluorescence flat and polarisation flat or rising; no compound was filed as active; the % refers to the polarisation; negative = inhibition;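 note: % of control where 0% means no effect; inhibitors lower the polarisation; unlabelled MLL peptide was the positive control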
Sfp inh: blocks B. subtilis Sfp PPTase activity; Q9F4F7; Biochemical Sfp PPTase activity, qHTS; Potency, µM, without a hit: max response, negative = inhibition, most hits filed as inhibitors; 310,000 tested, 3.5% active; AID 1490; active = well fitted inhibition curve with a large enough effect; inconclusive = small, poorly fitted or top-dose-only effect, or another doubt; inactive = no such curve, though single readings can be large or run the other way;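 note: the enzyme is Sfp with the accession as filed and its product quenches rhodamine fluorescence; potency is the fitted concentration of half-maximal effect; 0% = enzyme reaction without inhibitor and -100% = no enzyme wells; top concentration of the series not given in the record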
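Buffer: 50 mM Hepes-Na pH 7.6, 10 mM MgCl2, 0.01% Nonidet P-40, 0.01% BSA. Enzyme 15 nM, pre-exposed to compound 15 min; substrates then added and fluorescence change tracked over 30 min.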
* = called active by the depositor; u = inconclusive; x = no result given; [ ] = remark or other dose.

SMILES | D2 ag | gsp agonist | gsp antagonist | ClpP mod | PINK1 modulator | Menin MLL FP FL | Sfp inh
N#Cc1ccccc1S(=O)(=O)N1CCNS(=O)(=O)c2ccccc21 | 0.4 | x | 6% | 0.1% | 1.0% | x | x
Cc1cc(NC(=O)CSc2ccc(-c3ccccc3)nn2)no1 | -1.0 | u | -5% | -1.9% | -1.7% | 0.6 | 3%
CCOC(=O)c1c(NC(=O)COC(=O)c2ccc(O)cc2)sc(C(=O)NC)c1C | 3.2 | -3%[15.4 µM] | u | x | 2.6% | x | x
Cc1cc(C)c(C#N)c(SCC(=O)N2CCCCC2)n1 | -0.2 | 15%[15.4 µM] | -5% | -6.4% | 1.0% | 0.7 | 32µM*
Nc1c(C(=O)c2ccc(Br)s2)oc2ccccc12 | -4.5 | u | -20% | -4.0% | 0.6% | 1.2 | -19%
CC(C)Cc1ccc(-c2cc3nc(NCCc4ccc(S(N)(=O)=O)cc4)ccn3n2)cc1 | 10 | x | x | 4.7% | 9.5% | x | x
CC(=O)Nc1ccc(NC(=O)c2ccc(OCc3c(C)noc3C)cc2)cc1 | -4.0 | 5% | 5% | x | 6.2% | x | x
CCC(=O)N1CCN(c2ccc(NC(=O)c3ccc4ccccc4c3)cc2)CC1 | -1.9 | 1% | 3% | x | 1.0% | -5.0 | 8%
O=C(COC(=O)CCc1nc2ccccc2c(=O)[nH]1)NC1CCS(=O)(=O)C1 (stereo unspecified) | -5.2 | -10% | 14% | -0.4% | 1.9% | 4.3 | 16%
COc1ccc(CNc2ncncc2-c2ccccc2CN(C)C)c(OC)c1 | x | x | x | x | 0.0% | -0.9 | u
N#C/C(=C\c1ccc[nH]1)C(=O)c1ccccc1 | -5.2 | -6% | -5% | x | 2.0% | 2.5 | 10%
CC1(C)Cc2c(sc(NC(=O)c3ccc4c(c3)OCCO4)c2C(N)=O)C(C)(C)N1 | -4.4 | u | u | -11% | -1.6% | x | -6%
Cc1cccc(C)c1OCc1cc(C(=O)N2CCN(C3CCCC3)CC2)no1 | -1.2 | -8% | -20% | 0.8% | 1.0% | 4.0 | -14%
CCn1c(CNC(=O)c2ccccc2OC)nnc1SCC(=O)c1ccc(F)cc1 | 2.7 | 26%[15.4 µM] | x | x | 0.0% | -1.9 | -3%
CCOc1cc(/C=N/NC(=O)c2ccc(CN3CCOCC3)cc2)ccc1OCc1ccccc1 | -1.6 | 8% | -24% | 1.4% | 17% | 7.7 | -13%
Clc1ccccc1OCCn1ccnc1 | -2.6 | -11% | 0% | -0.9% | u | 2.1 | -27%
COCCCN1C(=O)C(=O)/C(=C(/O)c2ccc(OC)cc2)C1c1cccc(OC)c1 (stereo unspecified) | -2.6 | -3% | -2% | 1.3% | -0.1% | 4.2 | 11%
O=C(NCc1cccnc1)c1cc(C2CCCCN2S(=O)(=O)c2ccc(F)cc2F)on1 (stereo unspecified) | -3.9 | x | x | -3.2% | 1.6% | x | x
O=C(c1cccc(F)c1)N1CCC2(CCCN(c3ncccn3)C2)CC1 | x | x | x | x | -0.4% | -6.2 | 5%
COc1ccc(CNC(=O)CC2C[C@H](C(=O)N3CCOCC3)[C@@]3(C)c4[nH]c5ccccc5c4CCN3C2=O)cc1OC (stereo partly specified) | -3.1 | x | 7% | -2.9% | 2.6% | x | x
Cc1onc(NC(=O)c2ccc([N+](=O)[O-])o2)c1Br | 8.1 | 21% | 13% | x | 3.9% | -4.1 | 4%
CCc1nnc(NC(=O)[C@@H](NC(=O)c2cc(OC)cc(OC)c2)C(C)C)s1 | -4.5 | 5% | -6% | -10% | -1.0% | -1.5 | -6%
COCCn1c(C)cc(C(=O)COC(=O)c2cncc(Br)c2)c1C | -4.8 | 12% | 2% | x | 0.1% | 0.3 | -9%
COc1cccc(C(C(=O)NC(C)(C)C)N(C(=O)CCC(=O)Nc2cc(C)on2)C2CC2)c1OC (stereo unspecified) | -3.7 | 10% | -13% | -1.0% | -2.3% | 5.8 | 14%
CCn1c(COc2cccc(C)c2)nnc1SCC(=O)CC(=O)Nc1ccccc1OC | -1.5 | -2% | u | -3.4% | 1.4% | 10.0 | 13%
SMILES | D2 ag | gsp agonist | gsp antagonist | ClpP mod | PINK1 modulator | Menin MLL FP FL | Sfp inh
Cc1cccn2c(=O)c3cc(C(=O)N4c5ccccc5CC4C)n(C)c3nc12 (stereo unspecified) | -1.0 | 3% | 6% | -5.6% | 12% | -4.0 | 18%
CC(C)(C)OC(=O)N[C@H](C(=O)OC(C)(C)C)c1ccc2ccccc2c1 | -5.0 | 7% | 0% | -3.4% | -1.0% | x | x
CCOC(=O)c1c(C)[nH]c2c1cc(O)c1ccccc12 | 8.2 | -48%[inhibitor] | -6% | -3.9% | x | -8.3 | -6%
COc1ccc(-c2cnc3c(NC(C)=O)cc(-c4ccccc4OC)cn23)cc1OC | 4.2 | x | x | 3.8% | 4.5% | x | x
Cc1nc2scc(-c3ccco3)c2c(=O)n1/N=C/N(C)C | -2.0 | -23% | -6% | -4.1% | x | 5.5 | 13µM*
Cn1c(SCC(=O)Nc2ccccc2)nc(O)cc1=O | 0.5 | -17% | -20% | -0.7% | 26%[38.3 µM] | 6.8 | -6%
CC1CN(CC(=O)Nc2nc(-c3ccc(Cl)cc3)cs2)CC(C)O1 (stereo unspecified) | -2.0 | -1% | -6% | x | 8.8% | x | x
CCN(C(=O)COC(=O)/C=C/c1cccc(Br)c1)C1CCS(=O)(=O)C1 (stereo unspecified) | 1.5 | 16%[15.4 µM] | 12% | -0.6% | -1.3% | x | 9%
Cc1noc(/C=C/c2ccco2)c1S(=O)(=O)N1CCC(C(=O)N2c3ccccc3CC2C)CC1 (stereo unspecified) | -1.9 | 1% | 1% | -6.9% | 4.1% | 4.7 | 4%
N#Cc1c(-c2ccco2)nc(NCC2CCCO2)[nH]c1=O (stereo unspecified) | -1.3 | u | 19% | 3.8% | -3.2% | 1.9 | 19%
CCc1ccc2oc(-c3cc(N=Cc4cccc(OC)c4O)ccc3O)nc2c1 | -0.5 | u | -2% | -1.3% | -3.6% | 3.0 | -6%
Cc1ccc2nc(-c3ccsc3)c(NC3CCCC3)n2c1 | 0.6 | 19%[15.4 µM] | -4% | x | 0.8% | -2.2 | 2%
COc1ccccc1NC(=O)C1CCOC1=O (stereo unspecified) | -1.6 | -75%[inhibitor] | 12% | 0.3% | 0.4% | x | x
O=C(c1ccc(OCC2CCCO2)cc1)N1CCN(S(=O)(=O)c2cccc(F)c2)CC1 (stereo unspecified) | -2.5 | -11% | 8% | -0.4% | 5.2% | x | x
COc1cccc(CC2(CO)CCN(C(=O)NC3CCCCC3)CC2)c1 | 0.2 | 2% | 2% | x | -1.1% | -4.0 | 7%
Cc1cccc(N2CN=c3s/c(=C\c4ccccn4)c(=O)n3C2)c1 | -4.6 | 4%[15.4 µM] | -17% | 0.3% | 0.3% | 0.8 | 11%
O=S1(=O)N=C(Nc2ccc(S(=O)(=O)N3CCCCC3)cc2)c2ccccc21 | -0.7 | u | -9% | u | 0.7% | 1.2 | 13%
CCCN(C(=O)c1ccco1)c1nnc(-c2ccncc2)s1 | 2.7 | 4% | u | 79% | -1.0% | -0.6 | -12%
O=c1oc2ccccc2c(NC2CCCCC2)c1NS(=O)(=O)c1ccc(F)cc1 | 2.3 | 3% | -4% | -3.9% | 0.6% | x | -2%
CC(=O)NCCc1ccc(C(=O)COC(=O)C2CCCCC2)cc1 | 2.1 | 1% | 11% | 0.5% | -4.4% | x | x
CCN1CCN(C(=O)c2sc3nc(C)nc(N4CCC(C)CC4)c3c2C)CC1 | -2.7 | 9% | -5% | -1.0% | -0.1% | 0.8 | 10%
O=C(O)c1ccc(-n2c(/C=C/c3cccc([N+](=O)[O-])c3)nc3ccccc3c2=O)cc1 | -5.2 | 2% | -5% | -1.6% | 0.2% | -11 | 19%
O=C(Cc1ccccn1)c1ccc(Cl)cc1 | -1.7 | x | -4% | 1.7% | 2.8% | x | x
C=CCn1c(O)c(N=NC(=S)Nc2ccc(OC)c(Cl)c2)c2ccccc21 | 9.3 | -1% | -3% | -1.7% | u | -1.1 | 1.8µM*
O=C(COC(=O)c1ccccc1C(=O)OCC(=O)NCCc1c[nH]c2ccccc12)NCCc1c[nH]c2ccccc12 | 14 | x | u | -4.8% | 0.3% | x | x
SMILES | D2 ag | gsp agonist | gsp antagonist | ClpP mod | PINK1 modulator | Menin MLL FP FL | Sfp inh
CCOc1ccc(C(NC(=O)/C=C/c2ccco2)c2ccc(OC)c(OC)c2)cc1 (stereo unspecified) | 4.1 | -67%[inhibitor] | -19% | 1.4% | -1.2% | 3.0 | u
CCC(CO)NCc1ccc(OC2CCCC2)cc1 (stereo unspecified) | -3.2 | -22% | 13% | 0.6% | -1.8% | 2.4 | 5%
O=C(c1ccsc1)N1CCCC(N2CCN(c3ccccc3F)CC2)C1 (stereo unspecified) | 1.2 | -29% | 6% | 0.3% | 2.4% | x | 4%
COc1ccc(C)cc1S(=O)(=O)Nc1cccnc1 | -0.3 | u | 10% | 1.9% | -7.2%[38.3 µM] | -1.2 | 6%
CCOC(=O)CSc1nc(C2CC2)cc(-c2ccc(Cl)cc2)c1C#N | -1.8 | 14% | u | -28% | 7.1% | 2.6 | 18µM*
COc1ccccc1-c1cc(NC(C)=O)c2ncc(-c3cccc(C(C)=O)c3)n2c1 | 12 | x | x | -6.6% | 1.9% | x | x
CC(C)CC(OC(=O)CC1Sc2ccccc2NC1=O)C(=O)NC1CCCC1 (stereo unspecified) | -4.2 | 3%[15.4 µM] | -36% | -3.3% | 8.2% | 0.5 | 10%
COCCCNC(CC(=O)Nc1ccc(OC)cc1OC)C(=O)O (stereo unspecified) | 1.2 | 35% | 13% | -1.0% | -1.2%[38.3 µM] | 2.5 | -19%
O=C(O)c1ccccc1N1C(=O)C2C3c4ccccc4C(Br)(c4ccccc43)C2C1=O (stereo unspecified) | -3.8 | 21% | -7% | -0.5% | -0.5% | -2.6 | 0%
CCOc1ccc(S(=O)(=O)N2CCC(C(=O)Nc3cccc(NC(C)=O)c3)CC2)cc1 | 3.1 | -42%[inhibitor] | -2% | x | -0.8% | -1.7 | -3%
